# MLL AF4-AF9 inh: blocks AF4 peptide binding to human AF9. AlphaScreen, biotin-AF4 peptide binding to FLAG-AF9. inhibition, % at 10 µM. 0.47% of 350,000 active;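 active = every replicate reaching a set inhibition limit, whatever the replicate mean, cut at about 25% in these data; inconclusive = mean inhibition reaches that limit but some replicates miss it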;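 also: 0% = plate neutral control median and 100% = total signal loss; the record names both 10 and 1 µM as test concentration; the first replicate is given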
# Target sequence (P42568 whole entry, looked up): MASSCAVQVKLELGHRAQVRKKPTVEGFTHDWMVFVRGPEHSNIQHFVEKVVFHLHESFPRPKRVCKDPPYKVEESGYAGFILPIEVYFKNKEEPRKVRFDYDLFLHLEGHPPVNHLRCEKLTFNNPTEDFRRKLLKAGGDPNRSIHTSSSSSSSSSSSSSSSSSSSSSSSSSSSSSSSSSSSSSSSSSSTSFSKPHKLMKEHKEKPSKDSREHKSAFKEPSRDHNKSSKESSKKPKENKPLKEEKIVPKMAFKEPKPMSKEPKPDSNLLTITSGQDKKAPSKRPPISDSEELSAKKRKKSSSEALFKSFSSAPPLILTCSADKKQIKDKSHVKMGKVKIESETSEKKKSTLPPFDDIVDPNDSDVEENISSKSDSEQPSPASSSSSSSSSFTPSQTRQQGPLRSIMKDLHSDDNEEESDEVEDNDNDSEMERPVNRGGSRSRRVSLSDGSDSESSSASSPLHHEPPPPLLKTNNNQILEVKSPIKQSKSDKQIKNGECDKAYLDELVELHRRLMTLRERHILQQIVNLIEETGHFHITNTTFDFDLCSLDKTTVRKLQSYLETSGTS
# HNF4A DNA FP: change in binding of human HNF4 alpha to DNA | activity change, % at 10 µM | P41235 | HNF4a-FITC DNA binding, fluorescence polarization, 1 h | 0.3% of 360,000 active; in the data active = activity change above about 30%, passing the limit was not always enough;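 also: controls were the assay level and a saturating level of protein; the project sought stronger binding though the title names inhibitors; some compounds called inactive have numbers as strong as hits; positive values seem to mean higher polarization but the record does not say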
# Vif A3G: HIV-1 Vif–A3G interaction blockers – biochemical, TR-FRET, GST-Vif 1-94, biotin-A3G peptide, dose response retest, primary screen (AID 1117319); TR-FRET GST-Vif / biotin-A3G peptide binding; higher % means a stronger effect; test concentration not given here; strong numbers were not always called active; inhibition, %; hits with a dose series show IC50 in µM; 0.57% of 260,000 active;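 active = above the screen mean plus three standard deviations and confirmed in dose response; inconclusive = results disagree or hit not tested in dose response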;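 also: Vif residues 1-94 fused to GST binding biotinylated APOBEC3G peptide 110-148; 0% = full assay without inhibitor and 100% = GST in place of GST-Vif; retest series ran down from 100 µM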
# Ecoli growth: E. coli growth inhibition; Escherichia coli growth, OD600, 23 h; hits give low values; OD600 absorbance (test concentration not listed); 0.21% of 330,000 active;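 active = OD600 absorbance below the run mean of sample wells minus 3.6 SD, in any replicate, cut at about 0.56 in these data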;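 also: stock transfer was 300 nL into about 60 µL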
# FGF22 binding: FGF22 (human) thermal shift binding; 1.5% of 340,000 active; calls only at 9.99 µM; recombinant FGF22 thermal shift, SYPRO orange fluorescence; percent of sucrose octasulfate shift, DMSO zero; Q9HCT0;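 active = melting point raised past a set limit in the mean and every replicate; inconclusive = no clear call; three in four hits are not shown here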
# Target sequence (Q9HCT0 whole entry, looked up): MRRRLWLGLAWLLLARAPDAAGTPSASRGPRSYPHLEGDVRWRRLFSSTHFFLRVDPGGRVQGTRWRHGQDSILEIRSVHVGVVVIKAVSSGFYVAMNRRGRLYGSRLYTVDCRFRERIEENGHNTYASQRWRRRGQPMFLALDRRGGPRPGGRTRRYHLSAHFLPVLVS
# ALR inh: inhibitors of human sulfhydryl oxidase ALR; P55789; purified ALR, DTT oxidation, H2O2 HRP-luminol luminescence; inhibition, % (no concentration beside the values); 3.8% of 290,000 active;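 active = mean and each replicate at 75% or more; inconclusive = only one of the two met; inactive = neither met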;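 also: stock transfer was 7.5 nL into about 7.5 µL; 0% = neutral wells and 100% = wells with inactivated enzyme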
# Target sequence (P55789 whole entry, looked up): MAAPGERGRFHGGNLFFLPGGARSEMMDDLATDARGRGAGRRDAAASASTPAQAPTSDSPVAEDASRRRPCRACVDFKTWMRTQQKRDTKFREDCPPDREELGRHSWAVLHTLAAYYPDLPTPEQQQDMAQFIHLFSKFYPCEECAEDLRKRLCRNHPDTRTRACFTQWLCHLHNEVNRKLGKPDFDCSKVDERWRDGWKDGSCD
# Ecoli rRNA inh: selective bacterial rRNA inhibition in E. coli. 1.6% of 350,000 active. E. coli WT GFP vs humanized-ribosome RFP mutants, fluorescence, 24 h; hits give low values; DMSO median 0, no signal -100. GFP signal change (wild-type ribosome), % (no concentration beside the values);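 active = significant combined selectivity score with lowered wild-type GFP, culture density cut under 30%, mutant RFP and density less affected; inactive = any of these conditions unmet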; also: one replicate is shown; some compounds called inactive have numbers as strong as hits
# Ecoli rRNA inh OD600: second read-out of Ecoli rRNA inh, no call of its own (marks repeat the call); OD600 change, %; measured here: OD600 growth;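 optical density of the mix in the first replicate; 0 = DMSO median and -100 = no signal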
# Ecoli rRNA inh RFP: also measured in Ecoli rRNA inh; calls as there; RFP signal change, %; measured here: RFP humanized mutant strains;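 first replicate; 0 = DMSO median and -100 = no signal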
# An asterisk follows results filed as active; i = inactive; ? = inconclusive; . = not tested or not shown. A portion of the library. The share of hits here may be higher or lower than overall.
SMILES,MLL AF4-AF9 inh,HNF4A DNA FP,Vif A3G,Ecoli growth,FGF22 binding,ALR inh,Ecoli rRNA inh,Ecoli rRNA inh OD600,Ecoli rRNA inh RFP
C/C=C/c1ccc2c(c1)O[C@H](CN(C)Cc1ccncc1)[C@H](C)CN([C@H](C)CO)S2(=O)=O,-20,.,.,.,i,.,-2,-5,-3.3
CN(Cc1nc(Cc2ccccc2F)no1)[C@@H]1CS(=O)(=O)C[C@H]1O,?,-2.1,?,0.66,i,-1,8,6,-1.4
COc1ccc(-n2nc([N+](=O)[O-])c(=NCCc3ccc(C)cc3)n2O)cc1,.,3.1,5%,0.68,.,-21,.,.,.
Cc1noc(C)c1S(=O)(=O)N(C)C[C@H]1OCCCC[C@H](C)Oc2ccc(NC(=O)CCC(F)(F)F)cc2C(=O)N([C@H](C)CO)C[C@H]1C,-6.0,.,.,.,i,.,3,3,3.6
COc1ccc(NC(=O)Cc2ccccc2)cn1,0.0,-7.5,-4%,0.7,i,-14,19,3,-4.5
CCC(=O)N1CCN(c2ccc(NC(=O)c3ccc4c(c3)OCCO4)cc2)CC1,-3.1,0.0,27%,0.69,i,-2,-6,2,-5.3
CCn1cc(/C=C(\NC(=O)c2ccccc2OC)C(=O)NCCCn2ccnc2)c2ccccc21,9.2,-1.8,.,0.7,i,-2,-2,2,1.6
C[C@@H]1CN([C@H](C)CO)C(=O)c2cc(NC(=O)Nc3ccc(C(F)(F)F)cc3)ccc2O[C@H]1CN(C)C,2.6,.,.,.,i,.,-1,-1,-0.2
O=C(Cc1csc(N2CCOCC2)n1)N/N=C/c1ccccc1C(=O)O,-11,-3.6,7%,.,i,.,6,6,4.4
CCC(=O)N1C[C@H](C)[C@H](OC)CN(C)C(=O)c2ccc(NC(=O)Nc3cccc(F)c3)cc2OC[C@H]1C,1.2,.,.,.,i,.,-7,-4,1.9
Cc1cccc(C)c1NC(=O)C(=O)NCC1CCCN1S(=O)(=O)c1cccs1 (centres undefined),4.1,-3.4,-3%,0.64,i,1,1,-6,0.4
Cc1cc(/C=C2/NC(=O)NC2=O)c(C)n1-c1ccccn1,.,1.7,19%,0.66,.,9,.,.,.
C[C@H]1CN([C@@H](C)CO)C(=O)Cc2cc(NC(=O)Cc3cn(C)c4ccccc34)ccc2O[C@@H]1CN(C)C(=O)NC1CCCCC1,-0.6,.,.,.,i,.,-1,-2,-3.5
O=C(Cn1cc(C(F)(F)F)ccc1=O)N1CCN(S(=O)(=O)c2ccc(Cl)cc2)CC1,.,-0.7,0%,0.73,.,0,.,.,.
CCC(=O)N1[C@H](CN(C(C)C)S(C)(=O)=O)[C@H](c2ccccc2)[C@@H]1CO,-1.2,.,.,.,i,.,3,11,-1.4

# Among those listed so far, 5 contain fluorine.
SMILES,MLL AF4-AF9 inh,HNF4A DNA FP,Vif A3G,Ecoli growth,FGF22 binding,ALR inh,Ecoli rRNA inh,Ecoli rRNA inh OD600,Ecoli rRNA inh RFP
CN(Cc1nc(Cc2ccccc2F)no1)[C@@H]1CS(=O)(=O)C[C@H]1O,?,-2.1,?,0.66,i,-1,8,6,-1.4
Cc1noc(C)c1S(=O)(=O)N(C)C[C@H]1OCCCC[C@H](C)Oc2ccc(NC(=O)CCC(F)(F)F)cc2C(=O)N([C@H](C)CO)C[C@H]1C,-6.0,.,.,.,i,.,3,3,3.6
C[C@@H]1CN([C@H](C)CO)C(=O)c2cc(NC(=O)Nc3ccc(C(F)(F)F)cc3)ccc2O[C@H]1CN(C)C,2.6,.,.,.,i,.,-1,-1,-0.2
CCC(=O)N1C[C@H](C)[C@H](OC)CN(C)C(=O)c2ccc(NC(=O)Nc3cccc(F)c3)cc2OC[C@H]1C,1.2,.,.,.,i,.,-7,-4,1.9
O=C(Cn1cc(C(F)(F)F)ccc1=O)N1CCN(S(=O)(=O)c2ccc(Cl)cc2)CC1,.,-0.7,0%,0.73,.,0,.,.,.

# Additional records follow.
SMILES,MLL AF4-AF9 inh,HNF4A DNA FP,Vif A3G,Ecoli growth,FGF22 binding,ALR inh,Ecoli rRNA inh,Ecoli rRNA inh OD600,Ecoli rRNA inh RFP
CC1Cc2cc(S(=O)(=O)NCCc3ccccc3)ccc2N1C(=O)C1CC1 (centres undefined),-2.3,-2.1,.,0.7,i,4,-7,-12,-1.3
Cn1c2ccccc2c2cc(/C=N/NC(=O)c3ccccc3F)ccc21,-0.1,-3.5,-2%,.,i,-2,-3,-2,-1.3
CC(C(=O)c1c[nH]c(C(N)=O)c1)c1ncc(C(F)(F)F)cc1Cl (centres undefined),-0.7,-1.1,-3%,0.63,i,-8,14,-7,-0.7
CCOC(=O)N1CCC(n2c(SCC(=O)N3CCCC3)nc3ccccc3c2=O)CC1,.,1.1,23%,0.69,.,-2,.,.,.
Cc1ccc(S(=O)(=O)N(C)C[C@@H]2OCCCC[C@H](C)Oc3ccc(NS(=O)(=O)c4c(C)noc4C)cc3C(=O)N([C@@H](C)CO)C[C@@H]2C)cc1,2.9,.,.,.,i,.,2,-4,5.8
C[C@@H]1CN([C@@H](C)CO)S(=O)(=O)c2ccc(C#CCN(C)C)cc2O[C@H]1CN(C)S(C)(=O)=O,-1.0,.,.,.,i,.,0,9,-1.3
CC(C)(CNC(=O)CCC1CCCC1)CNC(=O)CCC1CCCC1,-1.1,0.7,-5%,0.69,i,-1,-3,-16,5.3
COc1ccc(CN(C)C[C@@H]2Oc3ccc(NS(=O)(=O)c4ccccc4)cc3CC(=O)N([C@H](C)CO)C[C@H]2C)cc1,0.4,.,.,.,i,.,-3,6,1.1
COc1cc(CCC(=O)OCC(=O)Nc2c(C)cc(C)cc2C)cc(OC)c1OC,2.9,-0.5,.,0.71,i,-4,7,3,-1.4
O=C(Nc1ccc2c(c1)OCO2)N1CCN(C(=O)C2CCCO2)CC1 (centres undefined),.,-0.6,22%,0.68,.,.,.,.,.
Cc1cccc(C(=O)NC2CC3CCC(C2)N3C)c1 (centres undefined),-1.6,-2.9,-3%,0.71,i,.,10,8,-2.6
CC1CC(C)CN(C2CCCCC2NS(=O)(=O)c2ccc(Cl)cc2)C1 (centres undefined),3.6,1.9,10%,0.65,i,-20,10,7,-0.8
O=C(CCN1CCN(c2ccccc2F)CC1)Nc1ccccc1Cl,0.2,-3.6,-6%,0.64,i,-11,-12,-19,-2.8
CCOC(=O)N1CCN(C(=O)COC(=O)CNC(=O)c2ccc(Cl)cc2Cl)CC1,-0.1,2.8,.,0.65,i,0,7,15,-2.0
CCc1nc2ccc(C(=O)N3CCN(c4ccc([N+](=O)[O-])cc4)CC3)cc2nc1CC,5.1,1.2,.,0.7,i,16,-23*,-13*,3.6*

# Part of the list above, limited to Ecoli rRNA inh RFP and Vif A3G.
Molecule	Ecoli rRNA inh RFP	Vif A3G
Cc1ccc(S(=O)(=O)N(C)C[C@@H]2OCCCC[C@H](C)Oc3ccc(NS(=O)(=O)c4c(C)noc4C)cc3C(=O)N([C@@H](C)CO)C[C@@H]2C)cc1	5.8	.
C[C@@H]1CN([C@@H](C)CO)S(=O)(=O)c2ccc(C#CCN(C)C)cc2O[C@H]1CN(C)S(C)(=O)=O	-1.3	.
CC(C)(CNC(=O)CCC1CCCC1)CNC(=O)CCC1CCCC1	5.3	-5%
COc1ccc(CN(C)C[C@@H]2Oc3ccc(NS(=O)(=O)c4ccccc4)cc3CC(=O)N([C@H](C)CO)C[C@H]2C)cc1	1.1	.
COc1cc(CCC(=O)OCC(=O)Nc2c(C)cc(C)cc2C)cc(OC)c1OC	-1.4	.
O=C(Nc1ccc2c(c1)OCO2)N1CCN(C(=O)C2CCCO2)CC1 (centres undefined)	.	22%
Cc1cccc(C(=O)NC2CC3CCC(C2)N3C)c1 (centres undefined)	-2.6	-3%

# Going on with the list.
SMILES,MLL AF4-AF9 inh,HNF4A DNA FP,Vif A3G,Ecoli growth,FGF22 binding,ALR inh,Ecoli rRNA inh,Ecoli rRNA inh OD600,Ecoli rRNA inh RFP
CC1CC(C)CN(C(=O)C2CCN(S(=O)(=O)c3cccc4cccnc34)CC2)C1 (centres undefined),.,-0.5,-2%,0.67,.,-5,.,.,.
O=C(N/N=C/c1ccc(-c2ccc([N+](=O)[O-])cc2)o1)C(O)c1ccccc1 (centres undefined),0.1,1.0,.,.,i,-3,-20,-4,1.4
O=S(=O)(NC(=NCc1ccccc1)c1ccccc1)c1ccccc1,-2.4,2.9,.,0.7,i,8,0,-6,5.1
Cc1ccc(-c2ccc(=O)n(Cc3c(F)cccc3Cl)n2)cc1,0.1,0.5,-5%,0.69,i,-5,-27*,-19*,3.0*
COc1ccc(OC(C)C(=O)Nc2ccc(F)cc2F)cc1 (centres undefined),-0.8,-3.4,-1%,0.7,.,-3,-2,-19,-5.4
Nn1cc(-c2ccccc2)nc1SCC(=O)Nc1ccc2c(c1)OCO2,11,1.1,-2%,0.71,i,-11,-24,-15,-18
CCCC(=O)N1CC2(CCN(Cc3nccs3)CC2)c2c([nH]c3cc(OC)ccc23)[C@H]1CO,6.1,.,.,.,i,.,-3,0,1.5
CCOc1ccc(CNC(=O)CCC(=O)n2ncc3ccc(Cl)cc32)cc1,0.8,-1.6,.,0.7,i,-2,1,8,1.6
CCOC(=O)CSc1cccc2cccnc12,.,-2.5,?,0.72,.,-5,.,.,.
CN(C1=NS(=O)(=O)c2ccccc21)c1ccc(OC(=O)c2ccncc2)cc1,-1.8,0.4,-13%,0.67,.,-1,.,.,.
C[C@@H]1CN([C@@H](C)CO)C(=O)c2cccc(NC(=O)C3CCCCC3)c2O[C@@H]1CN(C)C(=O)Nc1ccc2c(c1)OCO2,0.4,.,.,.,i,.,1,2,-2.0
COc1ccc(CN(C)CC(=O)Nc2sc3c(c2C#N)CCC3)cc1OC,2.8,2.0,2%,0.67,.,28,-35,-60,-1.4
COC(=O)c1c(NC(=O)/C=C/c2ccc3c(c2)OCO3)sc(C)c1C,.,-1.7,.,0.72,.,38,.,.,.
CCCc1cc(=O)[nH]c(SCC(=O)N(C)C2CCCCC2)n1,-3.1,-2.1,3%,0.69,i,.,-2,-6,-0.8
CCOc1ccc(C(=O)Nc2ccc(N3CCN(C)CC3)cc2)cc1Br,.,1.6,14%,0.67,.,-6,.,.,.
O=C(CN1C(=O)c2ccccc2S1(=O)=O)Nc1cccc(S(=O)(=O)N2CCCCC2)c1,1.2,1.9,.,0.69,i,5,0,4,2.0

# Shown with values under each structure: entries from further up.
# Order of values – MLL AF4-AF9 inh	HNF4A DNA FP	Vif A3G	Ecoli growth	FGF22 binding	ALR inh	Ecoli rRNA inh	Ecoli rRNA inh OD600	Ecoli rRNA inh RFP
COc1ccc(OC(C)C(=O)Nc2ccc(F)cc2F)cc1 (centres undefined)
    -0.8	-3.4	-1%	0.7	.	-3	-2	-19	-5.4
Nn1cc(-c2ccccc2)nc1SCC(=O)Nc1ccc2c(c1)OCO2
    11	1.1	-2%	0.71	i	-11	-24	-15	-18
